TRPML1 ag: qHTS for Agonists of the Human Mucolipin Transient Receptor Potential 1 (TRPML1); AID 624414, 2012; TRPML1-expressing cells, Ca2+ dye fluorescence, FDSS; host cell line not named in the record; reference of the full effect not given here; activation, % (no concentration beside the values); 0.12% of 410,000 active; Mucolipin-1 (Homo sapiens), Q9GZU1; in the data active = activation above about 50%; inconclusive = about 30% to 50%; inactive = below about 30%; further: 0% is about no effect; the text of the record puts the active cut at 80%
Target sequence (Q9GZU1 whole entry, looked up): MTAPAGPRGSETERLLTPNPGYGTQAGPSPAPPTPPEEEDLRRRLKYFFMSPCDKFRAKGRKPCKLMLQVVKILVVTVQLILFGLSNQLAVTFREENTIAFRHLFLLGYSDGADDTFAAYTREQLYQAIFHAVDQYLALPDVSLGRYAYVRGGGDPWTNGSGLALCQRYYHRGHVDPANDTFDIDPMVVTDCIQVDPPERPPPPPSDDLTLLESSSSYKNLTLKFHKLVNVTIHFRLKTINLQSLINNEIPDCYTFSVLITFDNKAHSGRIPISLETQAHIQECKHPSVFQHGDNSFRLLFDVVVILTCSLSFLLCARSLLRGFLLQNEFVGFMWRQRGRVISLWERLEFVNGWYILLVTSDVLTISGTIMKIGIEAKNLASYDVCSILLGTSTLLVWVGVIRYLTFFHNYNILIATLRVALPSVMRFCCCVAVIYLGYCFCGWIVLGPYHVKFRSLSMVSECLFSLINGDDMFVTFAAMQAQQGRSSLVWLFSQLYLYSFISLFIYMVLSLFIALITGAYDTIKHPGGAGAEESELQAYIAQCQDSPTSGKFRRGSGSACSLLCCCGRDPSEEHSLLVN
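Cells: TRPML1-DL, 1X Tet inducer, ~16 h at 37 degrees C/5% CO2. Dye: ABD Ca8 no-wash + quencher, 45-90 min RT. Read: 10 s baseline, compound add, 110 s agonist phase; 54-4 EC80 (4uM final), 110 s antagonist phase.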
CtBP-E1A inh: qHTS Assay for Inhibitors of the CtBP/E1A Interaction | CtBP / adenovirus E1A interaction (AlphaScreen) | AlphaScreen GST-E1A/His-CtBP binding, 1536-well; hits give low values; control for the full effect not named in the record | activity change, % (concentration not given with the values) | 0.49% of 340,000 active | AID 651724, 2012; in the data active means activity change below about -65%; inconclusive means about -30% to -65%; inactive means above about -30%; further: on the % scale 0 is the no-effect control and ±100 the full control effect
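Protein mix (5X: 125 nM each GST-E1A, His-CtBP) was incubated with pinned compound 2 h at 37 deg C in dark, in 50 mM Tris pH 8.0 buffer with 300 mM NaCl. Glutathione donor and nickel acceptor beads followed; AlphaScreen signal read after 1 h.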
D2 ag: Beta-Arrestin HTS for Positive Allosteric Modulators of the Human D2 Dopamine Receptor: Agonists | D(2) dopamine receptor (Homo sapiens), P14416 | DiscoveRx PathHunter D2 beta-arrestin, luminescence, 90 min; 100% = 57 uM dopamine signal | activation, % (no concentration beside the values) | 0.084% of 360,000 active | AID 624465, 2012; in the data active = activation above about 40%; inconclusive = about 15% to 40%; inactive = below about 15%; further: compound concentration not given in the record; the text of the record calls up to 30% inactive
Target sequence (P14416 whole entry, looked up): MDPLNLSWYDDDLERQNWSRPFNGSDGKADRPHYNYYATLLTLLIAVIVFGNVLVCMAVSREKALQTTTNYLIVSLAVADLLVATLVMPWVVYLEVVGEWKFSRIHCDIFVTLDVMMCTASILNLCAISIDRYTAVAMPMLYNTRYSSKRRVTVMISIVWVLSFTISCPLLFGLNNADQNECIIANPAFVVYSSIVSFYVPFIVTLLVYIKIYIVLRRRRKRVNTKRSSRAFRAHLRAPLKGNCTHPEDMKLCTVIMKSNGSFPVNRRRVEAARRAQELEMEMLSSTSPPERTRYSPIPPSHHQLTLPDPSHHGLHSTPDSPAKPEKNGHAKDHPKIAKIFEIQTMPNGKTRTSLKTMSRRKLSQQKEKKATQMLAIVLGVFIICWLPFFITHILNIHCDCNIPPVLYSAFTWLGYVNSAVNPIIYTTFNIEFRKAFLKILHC
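DiscoveRx PathHunter D2 beta-arrestin cells (2,100/well) attached overnight, then compound-stimulated 90 min at 37 C in HBSS/10 mM HEPES/0.1% Tween-20 buffer; beta-galactosidase complementation read by luminescence after 1 h at ambient temperature. Dopamine 57 uM final (EC100) as control.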
TRPML1 blocker: qHTS for Inhibitors of the Human Mucolipin Transient Receptor Potential 1 (TRPML1) | Mucolipin-1 (Homo sapiens), Q9GZU1 | TRPML1-inducible cells, Ca2+ dye fluorescence, FDSS; hits give low values; inhibition of EC80 agonist-evoked calcium signal | activity change, negative = inhibition, % (no concentration beside the values) | 0.02% of 390,000 active | AID 624415, 2012; in the data active means activity change below about -50%; inconclusive means about -30% to -50%; inactive means above about -30%;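 further: stimulus is agonist 54-4 at its EC80 concentration; on the % scale 0 is the no-effect control and ±100 the full control effect; compound concentration not given in the record; the text of the record puts the active cut at -80%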
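Tet-induced TRPML1-DL cells loaded with Ca8 no-wash calcium dye were read kinetically on FDSS. Compound addition was followed by EC80 agonist 54-4 (4 uM final); inhibition was read over 110 s.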
PINK1 expr mod: A Quantitative High throughput Screen to Identify Chemical Modulators of PINK1 Expression; PINK1 immunofluorescence, high-content cytometry, 24 h; Potency, µM (top dose mostly 76.6 µM), without a hit: at the highest dose activation (PINK1 increase), hits mostly activators; 0.2% of 410,000 active; AID 624263, 2012; active = well fitted activation curve with a large enough effect; inconclusive = small, poorly fitted or top-dose-only effect; inactive = flat fitted curve, though single readings scatter; cell line not stated here;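 further: potency means the concentration at half of the fitted maximal effect; % of control where 0% means no effect; nearly all actives have a fitted effect of over 65% in size; a mitochondrial uncoupler was the plate control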
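PINK1 protein, normally rapidly degraded, was detected by immunofluorescence after 24 hour compound treatment of a stable cell line. Titration data (5 concentrations) came from laser-scanning cytometry, with CCCP-treated wells as controls.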
Six1-Eya2 inh: qHTS Assay for Inhibitors of the Six1/Eya2 Interaction | Homeobox protein SIX1 (Homo sapiens) + Protein phosphatase EYA2 (Homo sapiens), … | AlphaScreen GST-Six1/His-Eya2 binding, biochemical; hits give low values; control for the full effect not named in the record | activity change, % (no concentration beside the values) | 0.56% of 360,000 active | AID 651725, 2012; in the data active = activity change below about -65%; inconclusive = about -30% to -65%; inactive = above about -30%; further: on the % scale 0 is the no-effect control and ±100 the full control effect; compound concentration not given in the record
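AlphaScreen with GST-Six1 and His-Eya2 (5X mix: 250 nM and 500 nM), glutathione donor and nickel acceptor beads; buffer 50 mM Tris pH 8.0, 300 mM NaCl, 1 mM TCEP; 1 h at 37 C in the dark.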
The depositor's hits bear a star; u = inconclusive; x = no result given; & = joins results of further samples; [ ] = remark or other dose.

SMILES	Six1-Eya2 inh	PINK1 expr mod	TRPML1 blocker	CtBP-E1A inh	TRPML1 ag	D2 ag
Cc1[nH]nc2c1C(C(C)c1ccccc1)C(C#N)=C(N)O2 (stereo not given)	-4	-0.1%	-9	-5	-0.9	-0.1
CSc1cccc(NC(=O)Cc2ccccc2[N+](=O)[O-])c1	0	1.6%	-10	0	0.0	-1.8
O=C(NC(=S)Nc1ccc(S(=O)(=O)Nc2nccs2)cc1)c1ccc(Br)o1	6	-1.6%	-6	x	0.8	-4.0
Cc1ccccc1C(=O)Nc1cccc(OCc2cc(=O)n3cccc(C)c3n2)c1	x	5.9%	-6	x	0.1	x
O=C(Nc1cccc(F)c1)c1ccc2c(c1)OCO2	2	-0.5%	9	5	0.1	-1.3
Cc1cc(S(=O)(=O)Nc2ccc(C(=O)NCCN3CCOCC3)cc2)ccc1F	7	1.1%	-5	-21	0.0	-2.5
CC(NC(=O)c1ccco1)C1CCCO1 (stereo not given)	-6	14%[38.3 µM]	u	-13	-0.1	2.8
CC(C)C[C@H]1CN([C@@H](Cc2ccc(O)cc2)CN2CCC[C@H]2CN2C(=O)C(=O)NC[C@@H]2Cc2ccc(O)cc2)C(=O)C(=O)N1CCc1ccccc1	-2	0.7%	x	5	-0.5	x
CN1CCN(c2ccc(NC(=O)c3ccc([N+](=O)[O-])o3)cc2Cl)CC1	-9	8.7%	7	-2	0.0	0.3
COc1ccc(N2CC(C(=O)N3CCN(C)CC3)CC2=O)cc1 (stereo not given)	3	-0.7%	4	10	0.6	0.2

Reformatted with two lines to a compound: part of the list above.
Every second line gives: Six1-Eya2 inh, PINK1 expr mod, TRPML1 blocker, CtBP-E1A inh, TRPML1 ag, D2 ag
> CN1CCN(c2ccc(NC(=O)c3ccc([N+](=O)[O-])o3)cc2Cl)CC1
  -9, 8.7%, 7, -2, 0.0, 0.3
> Cc1ccccc1C(=O)Nc1cccc(OCc2cc(=O)n3cccc(C)c3n2)c1
  x, 5.9%, -6, x, 0.1, x
> Cc1[nH]nc2c1C(C(C)c1ccccc1)C(C#N)=C(N)O2 (stereo not given)
  -4, -0.1%, -9, -5, -0.9, -0.1
> CSc1cccc(NC(=O)Cc2ccccc2[N+](=O)[O-])c1
  0, 1.6%, -10, 0, 0.0, -1.8

(further entries)
SMILES	Six1-Eya2 inh	PINK1 expr mod	TRPML1 blocker	CtBP-E1A inh	TRPML1 ag	D2 ag
CC1=C(C(=O)Nc2ccccc2C)C(c2ccccc2)NC(=O)N1 (stereo not given)	-4	2.4%	-7	-1	-0.9	-5.8
COc1ccc(CNC(=O)CN(C)CC(=O)Nc2ccccc2Br)cc1	3	-0.9%	-9	-3	-0.2	-6.0
CCNC(=S)N/N=C(\C)c1cc2ccccc2o1	-14	-0.8%	-9	-26	-0.2	-2.3
CC(Oc1ccc2c3c(c(=O)oc2c1)CCC3)C(=O)NCCN1CCOCC1 (stereo not given)	0	0.7%	-11	5	0.2	-3.4
COc1ccc(-n2nnnc2C(C2CC2)N2CCN(C/C=C/c3ccccc3)CC2)cc1 (stereo not given)	-7	-0.6%	x	-10	-0.5	10
COCC(=O)N1CCC(Oc2ccc(C(=O)N[C@H](C(=O)OC)C(C)C)cc2)CC1	-1	0.6%	-16	6	0.4	-3.8
NS(=O)(=O)c1ccc(CNC(=O)c2ccc(Cl)cc2[N+](=O)[O-])cc1	13	2.1%	-1	12	0.0	-3.0
COc1ccc(OC)c(C(=O)Nc2c(O)ccc3ccccc23)c1	4	-1.7%	21	-4	0.4	5.0
CC1=NN(C(=O)c2ccc(Cn3nc(C)cc3C)o2)C(O)(C(F)(F)F)C1 (stereo not given)	1	5.8%[38.3 µM]	-2	1	3.2	-1.0
CCOc1ccc(S(=O)(=O)Nc2ccc(S(=O)(=O)Nc3cc(OC)ccc3OC)cc2)cc1	-1	2.7%[38.3 µM]	31	-7	1.2	-0.2

(continued)
SMILES	Six1-Eya2 inh	PINK1 expr mod	TRPML1 blocker	CtBP-E1A inh	TRPML1 ag	D2 ag
CCN(CC)S(=O)(=O)c1ccc2c(c1)N(CC(=O)NCc1ccccc1)C(=O)CS2	x	-1.4%	-24	x	-0.4	x
O=C(OCC(=O)c1ccc(Cl)s1)c1ccc2ccccc2n1	-3	-1.8%	-8	5	1.8	15
CCCC(c1nnnn1Cc1ccco1)N1CCN(c2ccccc2)CC1 (stereo not given)	-4	-2.1%	-12	0	0.9	-2.3
C/C(=N\NC(=O)C(N)=O)c1ccc2c(c1)OCCO2	21	-0.4%	3	11	0.7	-3.3
CCC1CCCCN1C(=O)CSc1nc2c([nH]c3ccccc32)c(=O)n1C (stereo not given)	2	2.9%[38.3 µM]	8	-5	6.6	-0.8
O=C(CN1CCN(C(c2ccccc2)c2ccccc2)CC1)NC(=O)NCc1ccco1	-5	9.1%	-1	-2	1.3	-1.1
Cc1cc(=O)oc2cc(OCC(=O)NCCCN3CCCC3=O)ccc12	-10	-0.3%	-4	x	-0.7	4.2
CCN1CCN(C(=S)NCc2ccc(C)cc2)CC1	16	0.6%	3	1	-0.1	-3.6
Cc1nnc(NC(=O)CCCCCN2C(=O)C3C4C=CC(C4)C3C2=O)s1 (stereo not given)	-5	1.1%	-14	3	-0.7	-0.9
Nc1nc(CN2CCN(Cc3ccc4c(c3)OCO4)CC2)nc(Nc2ccccc2)n1	-5	-2.3%	-6	-11	-0.7	-0.2

The listing continues.
SMILES	Six1-Eya2 inh	PINK1 expr mod	TRPML1 blocker	CtBP-E1A inh	TRPML1 ag	D2 ag
CCCN1C(=O)/C(=N\OCC(=O)NC23CC4CC(CC(C4)C2)C3)c2ccccc21	-9	1.1%	13	-11	0.8	-5.2
COc1ccc(CN(Cc2ccco2)c2cnc(S(C)(=O)=O)nc2C(=O)Nc2ccc(C)c(C)c2)cc1	x	0.3%	20	x	1.4	x
Cc1cc(C)nc(Nc2n[nH]c(C)n2)n1	2	-0.6%	-10	x	0.2	2.5
Cc1nc2c3ccccc3nc(NNC(=O)CCC(=O)N3CCC(C)CC3)n2n1	-17	0.2%	13	x	0.8	-1.5
CC1(C)C(=O)OC(c2c3ccccc3cc3ccccc23)C(C)(C)C1=O (stereo not given)	33	7.5%	55	36	1.4	-1.0
N#CCCN1CCN(C2=NC(=O)/C(=C\c3cccs3)S2)CC1	-19	0.8%	8	-11	-0.6	-8.6
CCn1c(C(=O)N2CCCC(C(=O)N3CCN(c4cc(C)ccc4C)CC3)C2)cc2sccc21 (stereo not given)	x	3.4%	-11	x	65*	x
CCC(NC(=O)C1CCC1)c1ccccc1 (stereo not given)	5	-2.1%	-1	4	1.7	-1.0
Cc1ccc(S(=O)(=O)NC(CC(C)C)C(=O)N2CCCC2)cc1 (stereo not given)	-2	-0.9%	1	-1	0.5	-5.5
Cc1c(O)c(CN2CCCC2)cc2c1oc(=O)c1ccccc12	-3	-2.4%	5	-13	-1.4	-4.6

Continued.
SMILES	Six1-Eya2 inh	PINK1 expr mod	TRPML1 blocker	CtBP-E1A inh	TRPML1 ag	D2 ag
Cc1cccc(N(Cc2nnc3n2CCCCC3)C(=O)Nc2ccccc2)c1	6	-0.3%	2	-5	1.2	0.1
O=S(=O)(NC1C2CC3CC(C2)CC1C3)c1ccccc1 (stereo not given)	4	3.6%	-1	x	-0.2	-4.4
CCCNC(=O)C(Cc1ccc(F)cc1)NC(=O)c1ccccc1 (stereo not given)	0	0.8%	-3	5	-0.7	3.0
Cc1cccnc1NC(=O)c1c(O)c2ccccc2n(C)c1=O	-2	1.7%	-2	-6	-0.6	-1.3
Cc1ccc(C(=O)Nc2nnc(S(=O)(=O)N3CCOCC3)s2)cc1	-6	-0.4%&0.9%	-5&-7	-6	0.7&-0.7	-5.1
CC(C)(C)c1ccc(C(=O)Cn2nc(C(=O)O)c3ccccc3c2=O)cc1	-11	-0.2%	3	x	0.4	-1.8
CCOC(=O)c1sc(NC(=O)CSc2nc(C)cc(-c3ccccc3)n2)c(C#N)c1C	0	-0.6%[38.3 µM]	-16	5	0.8	2.9
Cc1ccc(O)c(C(=O)c2cnn(C(=O)c3cccc(S(=O)(=O)N(C)C)c3)c2)c1	1	1.0%	18	-1	0.3	-4.3
COc1ccc(C(=O)NCC(=O)OCC(=O)NCc2cccs2)cc1	-5	0.5%	2	10	0.8	0.1
O=S(=O)(c1ccc(NCC2CCCCC2)nc1)N1CCOCC1	4	0.5%	7	-1	0.3	-2.9

(continued)
SMILES	Six1-Eya2 inh	PINK1 expr mod	TRPML1 blocker	CtBP-E1A inh	TRPML1 ag	D2 ag
Cc1ccoc1C(=O)N1CCCC(CCC(=O)N2CCN(c3ccccn3)CC2)C1 (stereo not given)	15	-0.2%	-3	x	0.1	-19
Cn1c(=O)c2ncn(CC(=O)NCCOc3ccccc3)c2n(C)c1=O	6	3.8%[38.3 µM]	1	6	-0.5	-0.5
COc1cc(CCC(=O)N2CCN(c3ccccc3Cl)CC2)cc(OC)c1OC	6	0.5%	10	1	0.3	0.3
CSc1nc2c(c(-c3ccc(O)cc3)c1C#N)CCC2	-13	1.6%	-15	-4	13	2.1
O=C(/C=C/c1ccc(Cl)cc1)N(Cc1ccccc1)C1CCS(=O)(=O)C1 (stereo not given)	-2	3.3%	-7	0	2.7	2.1
COCCCNC(=S)N/N=C/c1ccc2c(c1)OCO2	1	-0.8%	19	x	1.3	2.3
CCn1c(SCC(=O)NNC(=O)c2ccco2)nnc1-c1ccco1	6	0.6%	-5	2	0.9	0.3
COc1ccc(-c2cc(=O)n(-c3nc4ccccc4[nH]3)[nH]2)cc1	u	2.3%[38.3 µM]	34	-65*	-0.5	-2.6
CCOC(=O)C1=C(CN2CCOCC2)NC(=O)NC1c1cccc([N+](=O)[O-])c1 (stereo not given)	-3	0.2%	1	-1	0.4	-1.1
Cc1ccc(O)c(C(CC(=O)N2CCCC2)c2ccccc2)c1 (stereo not given)	20	1.7%	-7	2	2.1	-2.9

Remaining list, next part.
SMILES	Six1-Eya2 inh	PINK1 expr mod	TRPML1 blocker	CtBP-E1A inh	TRPML1 ag	D2 ag
COc1ccccc1C(=O)Oc1ccccc1C(=O)Nc1ccccc1	1	3.8%	-13	x	3.3	0.0
Fc1cc2nccnc2cc1N1CCSCC1	5	-9.0%[38.3 µM]	6	0	1.2	0.8
S=C(Nc1cccc2ccccc12)N1CCN(c2ncccn2)CC1	-1	-0.1%	19	0	-0.7	2.2
Cc1ccc(S(=O)(=O)N(CC(=O)NCC2CCCO2)c2cccc([N+](=O)[O-])c2)cc1 (stereo not given)	4	1.5%	7	2	-0.5	-5.4

Assay outcomes deposited in PubChem BioAssay by National Center for Advancing Translational Sciences (NCATS).
